Rango release inh – inhibition of RanGTP-driven Rango-importin beta dissociation; Biochemical FRET Rango-importin beta, RanGTP-induced dissociation; O95149+P62826; Potency, µM (highest dose often 46.1 µM), inactives show at the top dose activity change, negative = inhibition; 0.071% of 340,000 active; active means falling FRET ratio curve, often poorly fitted, with flat reads before Ran was added; inconclusive means other falling curves, or compound fluorescence or quenching; inactive means flat or rising ratio curve;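 also: potency is read from the fitted curve at half-maximal effect; % of control where 0% means no effect; nearly all actives have a fitted effect of over 45% in size; -100% = wells without RanGTP and RCC1; the record marks most hits as doubtful in a second field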
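Compounds preincubate 5 min with complex of recombinant Rango and importin beta in PBS with 1 mM DTT. Ran (0.6 uM) loaded with 2 mM GTP plus 0.2 uM RCC1 starts dissociation; FRET is recorded 45 min later.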
Rango-impB inh – prevents formation of the Rango-importin beta complex; 0.031% of 340,000 active; Potency, µM (series often up to 92.2 µM), for the others: at the top dose inhibition of complex formation; AID 540263; Rango CFP/YFP FRET sensor + importin beta, 45 min; active = rising FRET ratio curve, often small or poorly fitted; inconclusive = mostly compound fluorescence or quenching in the first reads; inactive = flat curves in all reads;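 also: potency is read from the fitted curve at half-maximal effect; 0% = DMSO wells and 100% = buffer wells lacking importin beta; nearly all actives have a fitted effect of over 15% in size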
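FRET biosensor Rango (snurportin 1 IBB between N-terminal EYFP and C-terminal Cerulean), 50 nM in PBS/1 mM DTT/0.02% Tween-20/0.1% BSA, preincubated 5 min RT with compound; 0.125 microM importin beta added, 45 min RT, CFP/YFP FRET ratio read.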
miR-21 reporter – miR-21 reporter, rising signal. 340,000 tested, under 10 active. HeLa miR-21 FLuc reporter, luciferase, 48 h. AID 2288. Potency, µM (top dose mostly 38.3 µM), for the others: at the highest dose reporter change, positive = more light; active = well fitted rising curve with a large enough effect; inconclusive = small, poorly fitted or top-dose-only effect; inactive = no such curve, though single readings can be large or run the other way;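 also: % of control where 0% means no effect; miR-21 action dims this reporter so a rising signal means less miR-21 action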
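Luminescence from a firefly luciferase reporter carrying a miR-21 binding site downstream, stably expressed under a CMV promoter in HeLa cells that make miR-21 endogenously, reports miRNA modulation after 48 h compound exposure up to approximately 40uM final.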
GLA inh pH 4.5 – blocks human alpha-galactosidase A at pH 4.5 | purified enzyme, 4-MU-alpha-Gal fluorescence, pH 4.5 | P06280 | AID 1467 | 230,000 tested, under 10 active | activity change, negative = inhibition, % at 105 µM; inconclusive = small, poorly fitted or top-dose-only inhibition, or a rising curve; inactive = flat fitted curve, though single readings scatter; no compound was filed as active;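 also: 0% = full activity with enzyme and -100% = basal without enzyme; dose as in the result columns while the protocol names 77 µM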
Target sequence (P06280 whole entry, looked up): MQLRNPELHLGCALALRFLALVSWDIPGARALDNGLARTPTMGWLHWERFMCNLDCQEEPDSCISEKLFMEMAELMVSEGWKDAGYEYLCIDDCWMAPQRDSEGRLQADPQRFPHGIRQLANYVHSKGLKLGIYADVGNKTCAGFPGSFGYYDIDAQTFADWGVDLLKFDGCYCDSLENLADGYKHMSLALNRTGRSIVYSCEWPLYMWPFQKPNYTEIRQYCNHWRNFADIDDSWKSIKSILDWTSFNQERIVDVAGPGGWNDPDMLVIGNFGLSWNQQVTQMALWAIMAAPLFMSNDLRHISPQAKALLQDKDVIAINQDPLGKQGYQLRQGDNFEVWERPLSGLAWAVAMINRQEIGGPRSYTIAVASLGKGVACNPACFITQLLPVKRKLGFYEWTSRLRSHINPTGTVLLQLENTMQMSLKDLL
An asterisk follows results filed as active; u = inconclusive; x = not tested or not shown; & = joins results of further samples.

SMILES | Rango release inh | Rango-impB inh | miR-21 reporter | GLA inh pH 4.5
CC(CNS(=O)(=O)c1ccccc1)Sc1ncccn1 (centres undefined) | 6% | -4.1% | -3% | 5
Cc1cccc(N2CCN(C(=S)NC3CCCCC3)CC2)c1C | -3% | 0.4% | 6% | 8
Cc1ccc(-n2nc(C(=O)O)cc2-c2ccccc2)cc1 | 2% | -1.1% | -12% | 4
O=C(c1ccc(Cl)nc1)N1CCC(Cc2ccccc2)CC1 | 11% | 4.1% | 5% | 6
Cc1ccc2cc(CN(CCN3CCCC3)C(=O)Nc3ccccc3)c(=O)[nH]c2c1C | 0% | 0.1% | -12% | -8
CC(C)c1ccc(NC(=S)Nc2ccc3[nH]c(=O)[nH]c3c2)cc1 | -12% | u | -17% | -4
O=C(N/N=C/c1cc([N+](=O)[O-])ccc1O)c1cccc(NC(=O)c2cccc(Cl)c2)c1 | -2% | 2.4% | 7% | x
CCOC(=O)c1cccc(NC(=O)c2ccc(NC(=O)c3ccco3)cc2)c1 | -4% | 5.5% | -5% | x
CCOC(=O)N1CCN(C(=O)CNC(=O)c2ccc(Cl)cc2Cl)CC1 | -13% | 4.5% | x | x
CC(C)C(C(=O)NCc1ccccc1)N(CC1CCCO1)C(=O)CNS(=O)(=O)c1ccccc1 (centres undefined) | 6% | 4.3% | 0% | x
O=C(CSc1nnc(-c2ccco2)n1-c1ccccc1)Nc1c(Cl)cc(Cl)cc1C(=O)O | -11% | 0.9% | x | x
COC(=O)c1sc(N)c(C(=O)OC)c1COC(=O)CNS(=O)(=O)c1ccc(C)cc1 | -7% | 6.2% | 0% | -11
O=C(COc1ccccc1)Nc1ccccc1NS(=O)(=O)c1cccs1 | 4% | -2.0% | -3% | -1
CC(C)Sc1nc(SCC(=O)O)c2c3c(sc2n1)COC(C)(C)C3 | 1% | 2.0% | -89% | -9
CCOC(=O)c1cnn(-c2sc(C(=O)OCC)c(C)c2C(=O)OCC)c1N | 7% | 3.0% | x | x
Cc1nc2cc(-c3sccc3-n3cccc3)nn2c(C)c1C | 0% | 0.8% | -28% | -9
CC(NC(=O)C1(c2cccs2)CCOCC1)c1ccccc1 (centres undefined) | -3% | 0.1% | -2%&-1% | -9
CC1=C(C(=O)c2ccccc2)C(c2cccc([N+](=O)[O-])c2)NC(=S)N1 (centres undefined) | 14% | -1.8% | -3% | 1
O=C(COC(=O)COc1ccccc1)NCc1ccco1 | -9% | -4.7% | x | x
CC(C)(C)c1ccc(N2C(=O)CSC2c2cccnc2)cc1 (centres undefined) | 8% | 6.2% | -1% | -5

Given as comma-separated lines: entries from further up
structure,Rango release inh,Rango-impB inh,miR-21 reporter,GLA inh pH 4.5
CC(CNS(=O)(=O)c1ccccc1)Sc1ncccn1 (centres undefined),6%,-4.1%,-3%,5
Cc1cccc(N2CCN(C(=S)NC3CCCCC3)CC2)c1C,-3%,0.4%,6%,8
Cc1ccc(-n2nc(C(=O)O)cc2-c2ccccc2)cc1,2%,-1.1%,-12%,4
O=C(c1ccc(Cl)nc1)N1CCC(Cc2ccccc2)CC1,11%,4.1%,5%,6
Cc1ccc2cc(CN(CCN3CCCC3)C(=O)Nc3ccccc3)c(=O)[nH]c2c1C,0%,0.1%,-12%,-8
CC(C)c1ccc(NC(=S)Nc2ccc3[nH]c(=O)[nH]c3c2)cc1,-12%,u,-17%,-4
O=C(N/N=C/c1cc([N+](=O)[O-])ccc1O)c1cccc(NC(=O)c2cccc(Cl)c2)c1,-2%,2.4%,7%,x
CCOC(=O)c1cccc(NC(=O)c2ccc(NC(=O)c3ccco3)cc2)c1,-4%,5.5%,-5%,x
CCOC(=O)N1CCN(C(=O)CNC(=O)c2ccc(Cl)cc2Cl)CC1,-13%,4.5%,x,x
CC(C)C(C(=O)NCc1ccccc1)N(CC1CCCO1)C(=O)CNS(=O)(=O)c1ccccc1 (centres undefined),6%,4.3%,0%,x
O=C(CSc1nnc(-c2ccco2)n1-c1ccccc1)Nc1c(Cl)cc(Cl)cc1C(=O)O,-11%,0.9%,x,x
COC(=O)c1sc(N)c(C(=O)OC)c1COC(=O)CNS(=O)(=O)c1ccc(C)cc1,-7%,6.2%,0%,-11
O=C(COc1ccccc1)Nc1ccccc1NS(=O)(=O)c1cccs1,4%,-2.0%,-3%,-1
CC(C)Sc1nc(SCC(=O)O)c2c3c(sc2n1)COC(C)(C)C3,1%,2.0%,-89%,-9

Following part
SMILES | Rango release inh | Rango-impB inh | miR-21 reporter | GLA inh pH 4.5
C[C@H](CO)N1C[C@H](C)[C@@H](CN(C)C(=O)Nc2ccc(C(F)(F)F)cc2)Oc2ccc(NC(=O)Nc3ccc4c(c3)OCO4)cc2C1=O | 18% | -1.8% | x | x
CCOC(=O)N1CCC(Nc2ncnc3c2cnn3-c2ccccc2)CC1 | -11% | -2.5% | -15% | -1
COc1cc(OC)cc(C(=O)N[C@H](C(=O)OCC(=O)c2ccc3c(c2)NC(=O)CO3)C(C)C)c1 | -9% | 0.7% | -8% | -2
Cc1ccc(/C=C/c2onc(C)c2S(=O)(=O)N2CCC(C(=O)NC(C)(C)C)CC2)cc1 | -9% | -0.2% | -12% | x
COc1ccc(N2CCN(C(=O)c3cc(-c4cc(OC)ccc4OC)nc4ccccc34)CC2)cc1 | 11% | 5.1% | 14% | x
O=C1Nc2ccccc2C(O)(C(=O)NC2CC2)N1c1ccc(Cl)c(Cl)c1 (centres undefined) | -10% | -1.3% | -8% | 4
COc1ccc(CCN(C)C(=O)c2cc(-c3ccc(C)cc3)nc3ccccc23)cc1OC | 8% | -5.3% | x | x
COc1cccc(NC(=O)CSc2ccc3nnc(-c4cccnc4)n3n2)c1 | -9% | -1.5% | -10% | x
CCCCc1nnc(NC(=O)CCN2C(=O)C3CC=CCC3C2=O)s1 (centres undefined) | -21% | 3.0% | x | x
NC(=O)c1ccsc1NC(=O)c1cccs1 | u | u | x | x
COc1ccc(-c2nc3n(c2C)CCC3)cc1 | 4% | -2.9% | -48% | 0
N#CC(C(=O)NC1CCCCC1)c1nc2ccccc2nc1N1CCN(c2ccccc2F)CC1 (centres undefined) | 0% | u | -14% | -5
O=C(NNC(=O)C1CC1c1ccccc1)Nc1cccc(Cl)c1 (centres undefined) | 34% | 1.9% | 1% | -27

Screens as filed in PubChem.

Some of the compounds tested; count on the stated rates, not on these rows.
